Screening results as filed in PubChem BioAssay.
Autofluor counter = flagged as autofluorescent in microsphere protease counterscreen; fluorescence intensity (concentration not given with the values); compound autofluorescence counterscreen, microsphere flow cytometry; active compounds read high; 360,000 tested, 3.1% active;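 active means at least 3 SD above the mean of all compounds, about 16000 in these data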;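 further: 100 nL of 1 mM stock went into each well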
* marks the source's active call; other numbers are inactive results. An excerpt. The share of hits here may be higher or lower than overall.

SMILES | Autofluor counter
CC(C)C[C@@H]1COc2cc(N3CCC[C@@H]3CO)ccc2S(=O)(=O)N1 | 6272
CC(C)C1C(=O)N(Cc2cn(CCC3OCCO3)nn2)CCS(=O)(=O)N1Cc1ccc(-c2ccncc2)cc1 (stereo unspecified) | 3912
Cc1cccnc1NC(=O)c1ccc(S(=O)(=O)N2CCCC2)cc1 | 2903
COC(=O)[C@]12CCCCC=C1N(Cc1ccco1)C(=O)[C@H](CC(=O)NCCc1ccccc1OC)C2 | 4457
CC(=O)N(C)C[C@H]1Oc2cc(Br)ccc2S(=O)(=O)N([C@H](C)CO)C[C@@H]1C | 2843
CSc1nc2ccc(NC(=O)CS(=O)(=O)c3ccccc3)cc2s1 | 2868
NC(=O)CC1(c2ccccc2)CCCCC1 | 3588
CCc1nc2c(OCc3cccc(Cl)c3)cccn2c1N(C)C(=O)CC(C)C | 3571
COCCNC(=O)C1(C)CCCN(C(=O)c2cccc(C(F)(F)F)c2)C1 (stereo unspecified) | 3205
COc1ccc(C(c2nnnn2C2CCCCC2)N2CCN(C/C=C/c3ccccc3)CC2)cc1 (stereo unspecified) | 5934
CC(C)C(=O)N1CCC1(C)C(=O)NCc1ccc(F)cc1Cl (stereo unspecified) | 3563
COc1ccc(C(=O)NCc2ccc(C)cc2)cc1S(=O)(=O)N1CCOCC1 | 3928

Next part, starting with the last four of the part before.
SMILES | Autofluor counter
COCCNC(=O)C1(C)CCCN(C(=O)c2cccc(C(F)(F)F)c2)C1 (stereo unspecified) | 3205
COc1ccc(C(c2nnnn2C2CCCCC2)N2CCN(C/C=C/c3ccccc3)CC2)cc1 (stereo unspecified) | 5934
CC(C)C(=O)N1CCC1(C)C(=O)NCc1ccc(F)cc1Cl (stereo unspecified) | 3563
COc1ccc(C(=O)NCc2ccc(C)cc2)cc1S(=O)(=O)N1CCOCC1 | 3928
C[C@@H]1CN([C@H](C)CO)C(=O)CCCn2cc(nn2)CO[C@H]1CN(C)C(=O)CCC(F)(F)F | 3817
O=C(Nc1ccc2c(c1)OCCO2)C(c1cc2ccccc2o1)N1CCN(C/C=C/c2ccccc2)CC1 (stereo unspecified) | 6170
COCCNC(=O)C1(C)CCN(C(=O)c2sccc2C)C1 (stereo unspecified) | 3763
Nc1ccn([C@@H]2O[C@H](CNCc3cnc(N4CCOCC4)s3)[C@@H](O)[C@H]2O)c(=O)n1 | 3831
CC1C(=O)N(Cc2cn(CCC3OCCCO3)nn2)CCS(=O)(=O)N1Cc1ccc(-c2cccc(N(C)C)c2)cc1 (stereo unspecified) | 3697
CC(C)C[C@H]1CNC(=O)C(=O)N1C[C@H](Cc1ccc(O)cc1)NC(=O)CC12CC3CC(CC(C3)C1)C2 | 5984
CCN1C(=O)[C@H]2[C@@H](c3ccc(OC)cc3)N[C@]3(CCCN(Cc4ccc(C(F)(F)F)cc4)C3=O)[C@H]2C1=O | 3695
COC(=O)c1cnc(Nc2nc(C(N)c3ccccc3Cl)cs2)nc1C(F)(F)F (stereo unspecified) | 2904
Cc1ccc(-c2c(C(=O)c3ccc(Br)cc3)[nH]c(N)c2C(=O)NCc2ccc(Cl)cc2)cc1 | 5075
Nc1ccn([C@@H]2O[C@H](CNC(=O)[C@@H](Cc3cn(COCc4ccccc4)cn3)NC=O)[C@@H](O)[C@H]2O)c(=O)n1 | 3461
Cc1cccc(CN2CCN(C3CN(Cc4cn(Cc5ccccc5F)nn4)S(=O)(=O)C3)CC2)c1 (stereo unspecified) | 6292
O=C(c1cnc(Cc2c[nH]c3ccccc23)c(I)c1)N1CCN(Cc2ccccc2)CC1 | 3464
CC1(C(=O)NS(=O)(=O)c2ccc3c(c2)CCO3)CCN1C(=O)CCc1ccc(Cl)cc1Cl (stereo unspecified) | 3472
CC(C)CC1NC(=O)c2cccnc2-n2c1nc1cc(F)ccc1c2=O (stereo unspecified) | 3710
OC(c1ccc(F)cc1)c1ncc(-c2ccc3ccccc3c2)[nH]1 (stereo unspecified) | 3740
CN(CC(=O)Nc1ccc(F)c(F)c1F)C(=O)C1(c2ccccc2)CC1 | 3776
Cc1ccc(F)c(S(=O)(=O)NC(=O)C2(C)CCN2C(=O)CCc2cccs2)c1 (stereo unspecified) | 3440
CCCNC(=O)CSc1nnc(NC(=O)C2CC(=O)N(c3ccccc3OC)C2)s1 (stereo unspecified) | 4013
Cc1ccc(OC(C)C(=O)N2CCc3ccccc32)c([N+](=O)[O-])n1 (stereo unspecified) | 2789
CNc1nc(NCc2ccc(C)cc2C)c2sccc2n1 | 3057
COc1ccc([C@H]2C[C@@H](O)[C@H](n3cc(COC(=O)c4ccccc4)nn3)CN2C(=O)C2CCCCC2)cc1 | 3464
O=C1NC(Cc2ccc(O)cc2)c2nc3ccc(F)cc3c(=O)n2-c2cc3ccccc3cc21 (stereo unspecified) | 3790
COc1ccc(Cl)c(-c2cc(C(=O)Nc3ccc(F)cc3)[nH]n2)c1 | 2884
CN(C)CCNc1ncnc2c1ncn2[C@H]1CN(Cc2ccc(Cl)cc2)C[C@@H](CO)O1 | 3482
CC1C(=O)N(Cc2cn(Cc3ccco3)nn2)CCS(=O)(=O)N1Cc1ccc(-c2ccccc2C(F)(F)F)cc1 (stereo unspecified) | 5883
COc1cc(C(O)c2nc(-c3ccc(F)c(Cl)c3)cs2)ccc1F (stereo unspecified) | 3428
CCCCN1C(=O)C(CC(=O)NCCN2CCOCC2)CC(C(=O)N(C(C)C)C(C)C)=C1C (stereo unspecified) | 3336
CN(C)c1ccc(C=Cc2ccnc3c(O)cccc23)cc1 | 12846
CC1=C(C(=O)N(C)C)CC(CC(=O)NC(c2ccccc2)c2ccccc2)C(=O)N1CCC1=CCCCC1 (stereo unspecified) | 3307
CC(C)NC(=O)N(C)C[C@H]1OCc2cnnn2CCCC(=O)N([C@H](C)CO)C[C@@H]1C | 3030
O=[N+]([O-])c1ccccc1C(=Nc1ccccc1)c1c(O)cc(O)cc1O | 3381
CCc1nc2c(OCc3ccc(S(C)(=O)=O)cc3)cccn2c1N(C)C(=O)c1ccccc1F | 3441
O=C(Cc1ccc(OCc2ccccc2)cc1)NCc1ccc2c(c1)OCO2 | 6065
COc1ccc2c(c1)nc(-c1cccc(Br)c1)c(=O)n2C(c1ccccn1)c1nc2ccccc2[nH]1 (stereo unspecified) | 3816
CC(C)NC(=O)c1cc(C2CCCCN2C(=O)OCCF)on1 (stereo unspecified) | 3548
CC(C)C(O)(C(=O)OCC1=CCN2CCC(O)C12)C(C)O (stereo unspecified) | 5513

Part of the list above, with each value named.
mol: Nc1ccn([C@@H]2O[C@H](CNC(=O)[C@@H](Cc3cn(COCc4ccccc4)cn3)NC=O)[C@@H](O)[C@H]2O)c(=O)n1
  Autofluor counter: 3461
mol: COc1ccc(C(=O)NCc2ccc(C)cc2)cc1S(=O)(=O)N1CCOCC1
  Autofluor counter: 3928
mol: CNc1nc(NCc2ccc(C)cc2C)c2sccc2n1
  Autofluor counter: 3057
mol: CSc1nc2ccc(NC(=O)CS(=O)(=O)c3ccccc3)cc2s1
  Autofluor counter: 2868

(continued)
SMILES | Autofluor counter
NC(Cc1ccc(Cl)cc1)c1csc(Nc2ccc(C(=O)c3ccccc3)cc2)n1 (stereo unspecified) | 3646
CCOC(=O)c1csc(NC(=O)CCS(=O)(=O)c2ccc(Cl)cc2)n1 | 2810
C[C@@H]1CN([C@@H](C)CO)C(=O)c2cc(NS(=O)(=O)c3ccc(F)cc3)ccc2O[C@@H](C)CCCCO[C@H]1CN(C)C(=O)NC1CCCCC1 | 2968
CCOC(=O)C1=CCN(S(=O)(=O)c2ccc(C)cc2)C1c1ccccc1 (stereo unspecified) | 5902
CC(C)CNc1ncnc2c1ncn2[C@H]1CN(Cc2ccco2)C[C@@H](CO)O1 | 2884
O=c1[nH]c2ccccc2c(=O)c2ccccc12 | 2876
Cc1ccccc1Oc1ccc2c(c1)[C@@H]1C[C@H](N(C)C(=S)Nc3ccc(F)cc3)[C@H]([C@H](C)O)C(=O)N1CC2 | 3985
Nc1nc2c(ncn2[C@@H]2O[C@H](CNC(=O)[C@H](N)Cc3ccccc3)[C@@H](O)[C@H]2O)c(=O)[nH]1 | 5800
COc1cccc(COC(=O)CSCC(=O)Nc2ccc(C)cc2)c1OC | 3009
COCCCNc1ccn2nc(-c3ccc(CC(C)C)cc3)cc2n1 | 3735
CCCC[C@@H]1CNC(=O)C(=O)N1CC1CCCCC1 | 4199
CC(C)C[C@H]1CNC(=S)N1C[C@H]1CCCN1C[C@H](CC(C)C)N1C[C@H](Cc2ccc(O)cc2)N(CC2CCCCC2)C1=S | 4147
CCOC(=O)C1=C[C@@H](C(C)C)N(S(=O)(=O)c2ccc(C)cc2)[C@H]1c1ccc(C(C)C)cc1 | 6261
O=C(NC1CCCC1)C1c2ccccc2OCC(=O)N1Cc1ccccc1 (stereo unspecified) | 5910
CSc1ccc(Cn2c(C)c(C(=O)NCc3cccs3)sc2=O)cc1 | 3708
CC1(c2nnnn2Cc2ccccc2)CCC(=O)N1C1CC1 (stereo unspecified) | 6477
Nc1[nH]c(C(=O)c2ccccc2)c(-c2ccccc2C(F)(F)F)c1C(=O)NCCc1cccs1 | 6285
COc1cc(CNC[C@H]2O[C@@H](n3ccc(N)nc3=O)[C@H](O)[C@@H]2O)ccc1OCc1cccc(Cl)c1 | 2967
COc1cc(OC)cc(C2=Cc3ccccc3C(CC(C)=O)N2c2ccc(C#CC3(N)CCCCC3)cc2)c1 (stereo unspecified) | 5737
CC1=C(C(=O)N(C)C)CC(CC(=O)NC(c2ccccc2)c2ccccc2)C(=O)N1Cc1ccc(C(C)(C)C)cc1 (stereo unspecified) | 2979
CCCCN1C(=O)C(CC(=O)NCc2cccc3ccccc23)CC(C(=O)N(CC)CC)=C1C (stereo unspecified) | 3622
COc1ccc(CN(C)C(=O)c2cccc(S(=O)(=O)NCc3ccccc3)c2)cc1F | 3604
CC1(C)CCCC2(C)C(OCCO)=CC(=O)C=C12 (stereo unspecified) | 3786
CCCCN(CCCC)Cc1cc(=O)oc2cc(OC)c(Cl)cc12 | 6059
C[C@H](O)[C@@H]1CN2CCc3c([nH]c4ccccc34)[C@@H]2C[C@@H]1N(C)C(=O)Nc1ccccc1 | 4117
COc1ccc(C(O)c2ncc(-c3ccccc3OC)[nH]2)cc1 (stereo unspecified) | 3591
COc1ccc2cc(CN(C)C(=O)CN3C(=O)NC4(CCCC4)C3=O)ccc2c1 | 4130
C[C@@H]1Cn2cnc(C(=O)N[C@@H](C)c3ccccc3)c2C(=O)N1 | 3587
CCCC(C)(C)C(=O)N1CCC1(C)C(=O)Nc1cccc(OC)c1 (stereo unspecified) | 4090
NC(c1csc(Nc2ccccn2)n1)c1ccccc1Cl (stereo unspecified) | 3799
O=C1c2ccccc2S(=O)N1c1cccc(F)c1 (stereo unspecified) | 3479
COc1ccc([C@H]2C[C@@H](n3cc(-c4ccc(F)cc4)nn3)[C@H](O)CN2CC2CCCCC2)cc1 | 3511
Nc1ccn([C@@H]2O[C@H](C(=O)N[C@H]3c4ccccc4C[C@H]3O)[C@@H](O)[C@H]2O)c(=O)n1 | 5829
COc1cc(F)ccc1-c1cc(C(=O)NCc2ccc(F)cc2)[nH]n1 | 3033
C[C@H](CO)N1C[C@H](C)[C@@H](CN(C)Cc2ccc(Cl)c(Cl)c2)OCc2cnnn2CCCC1=O | 3526
CC(C)Oc1cccc(C(=O)Nc2nnc([C@H]3C[C@H](O)[C@@H](CO)O3)s2)c1 | 2849
O=C(O)c1ccccc1-c1ccccc1C(=O)Nc1ccc2oc(=O)c3ccccc3c2c1 | 3818
CCN(CC)C(=O)C1=C(C)N(CCCN2CCCC2=O)C(=O)C(CC(=O)NCc2cccs2)C1 (stereo unspecified) | 2880
CCNC(=S)Nc1ccc2c(c1)c(=O)n(C)n2-c1cc(C)cc(C)c1 | 3686
Cc1cc(C(=O)CCC(=O)N(C)CC2COc3ccccc3O2)c(C)s1 (stereo unspecified) | 4073
COC(=O)[C@@]1(Sc2ccc(C)cc2)CC(=O)N(c2ccccc2)[C@@H]1c1ccccc1 | 5509
O=C1C[C@@H]2C(=O)N(c3ccccc3)C(=O)[C@@H]2[C@@H]2CN(S(=O)(=O)c3ccccc3)[C@@H](c3ccccc3)[C@H]12 | 5791
C[C@@H]1CN([C@H](C)CO)C(=O)CCCn2nncc2CO[C@H]1CN(C)Cc1cccc(C(=O)O)c1 | 3789
Cc1ccsc1C(=O)N1CCCC(C)(C(=O)O)C1 (stereo unspecified) | 4047
CNc1nc(Nc2ccc(C(=O)OC)cc2)c2sccc2n1 | 3701
CN(C)c1ccc(NC(=O)Nc2nc(C(N)C3CCCCC3)cs2)cc1 (stereo unspecified) | 3550
COc1cc(-n2c(C)nc3ncn(-c4ccccc4)c3c2=O)cc(OC)c1OC | 3794
S=C(NCCCCN(Cc1ccc(Cl)cc1)c1ccc(Br)cn1)NCCCc1cnc[nH]1 | 3860
O=C(NCC(O)c1nc2ccccc2[nH]1)c1cc([N+](=O)[O-])ccc1F (stereo unspecified) | 6238
Cc1cccc(S(=O)(=O)NC(=O)C2(C)CCN2C(=O)C2(c3ccc(Cl)cc3)CC2)c1 (stereo unspecified) | 3702
N#CCCN(Cc1ccccc1)C(C(=O)NC1CCCCC1)C1CC1 (stereo unspecified) | 4155
NC(COCc1ccccc1)c1csc(Nc2cc(Oc3ccccc3)ncn2)n1 (stereo unspecified) | 2866
CC1(C(=O)NS(=O)(=O)C2CC2)CCCN(C(=O)c2ccccc2OC(F)(F)F)C1 (stereo unspecified) | 3829
CC(C)C(N)c1csc(NC(=O)Nc2cccc(Cl)c2)n1 (stereo unspecified) | 3574
